D2 agonist: Beta-Arrestin HTS for Positive Allosteric Modulators of the Human D2 Dopamine Receptor: Agonists; actives 0.084% (n = 360,000); D(2) dopamine receptor (Homo sapiens), P14416; activation, % (concentration not given with the values); DiscoveRx PathHunter D2 beta-arrestin, luminescence, 90 min; 100% = 57 uM dopamine signal; in the data active = activation above about 40%; inconclusive = about 15% to 40%; inactive = below about 15%; also: compound concentration not given in the record; the text of the record calls up to 30% inactive
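Agonist mode: compounds alone added to overnight-plated D2 PathHunter cells for 90 min at 37 C, with 57 uM final dopamine (EC100) defining full response. Beta-arrestin recruitment detected by chemiluminescent reagent, read after 1 h at ambient temperature.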
Six1-Eya2 blk: qHTS Assay for Inhibitors of the Six1/Eya2 Interaction. Homeobox protein SIX1 (Homo sapiens) + Protein phosphatase EYA2 (Homo sapiens), …. AlphaScreen GST-Six1/His-Eya2 binding, biochemical; stronger effect = lower value; control for the full effect not named in the record. activity change, % (test concentration not listed). actives 0.56% (n = 360,000); in the data active = activity change below about -65%; inconclusive = about -30% to -65%; inactive = above about -30%; also: % is scaled to controls: 0 for no effect and ±100 for the full control effect; compound concentration not given in the record
Target sequence (O00167 whole entry, looked up): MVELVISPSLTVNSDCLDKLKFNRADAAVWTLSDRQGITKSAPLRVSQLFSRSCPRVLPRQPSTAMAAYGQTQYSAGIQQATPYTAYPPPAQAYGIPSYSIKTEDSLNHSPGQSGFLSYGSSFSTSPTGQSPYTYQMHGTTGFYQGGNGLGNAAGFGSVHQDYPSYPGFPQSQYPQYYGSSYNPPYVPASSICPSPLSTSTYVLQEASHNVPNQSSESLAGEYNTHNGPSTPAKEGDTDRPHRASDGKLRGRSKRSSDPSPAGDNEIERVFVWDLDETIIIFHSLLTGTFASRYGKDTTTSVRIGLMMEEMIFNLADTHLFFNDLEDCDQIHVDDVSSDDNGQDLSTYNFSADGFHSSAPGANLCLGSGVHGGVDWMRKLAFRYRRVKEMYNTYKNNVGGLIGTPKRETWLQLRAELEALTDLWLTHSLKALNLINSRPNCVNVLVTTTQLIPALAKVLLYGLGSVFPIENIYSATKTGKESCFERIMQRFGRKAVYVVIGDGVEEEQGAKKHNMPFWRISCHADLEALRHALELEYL
Target sequence (Q15475 whole entry, looked up): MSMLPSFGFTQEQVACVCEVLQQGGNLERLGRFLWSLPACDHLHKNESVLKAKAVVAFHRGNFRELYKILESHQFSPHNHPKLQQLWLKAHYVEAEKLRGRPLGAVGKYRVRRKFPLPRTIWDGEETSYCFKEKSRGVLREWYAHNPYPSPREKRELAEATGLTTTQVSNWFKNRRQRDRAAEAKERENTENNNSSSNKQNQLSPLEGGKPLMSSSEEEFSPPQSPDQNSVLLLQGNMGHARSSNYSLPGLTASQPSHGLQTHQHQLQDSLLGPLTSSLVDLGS
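GST-Six1 + His-Eya2 (5X stock: 250/500 nM); Tris pH 8.0, 300 mM NaCl, 0.05% BSA, 0.02% Tween 20; GSH donor/Ni acceptor beads; 1 h 37 °C dark; AlphaScreen readout.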
CtBP-E1A inh: qHTS Assay for Inhibitors of the CtBP/E1A Interaction; CtBP / adenovirus E1A interaction (AlphaScreen); AlphaScreen GST-E1A/His-CtBP binding, 1536-well; stronger effect = lower value; control for the full effect not named in the record; activity change, % (no concentration beside the values); actives 0.49% (n = 340,000); AID 651724, 2012; in the data active means activity change below about -65%; inconclusive means about -30% to -65%; inactive means above about -30%; also: % is scaled to controls: 0 for no effect and ±100 for the full control effect; compound concentration not given in the record
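AlphaScreen with 125 nM GST-E1A and 125 nM His-CtBP (5X stocks) in Tris pH 8.0, 300 mM NaCl, BSA, Tween 20, TCEP. Compounds preincubated 2 h at 37 deg C, then glutathione donor/nickel acceptor beads added for 1 h at 37 deg C in dark.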
TRPML1 agonist: qHTS for Agonists of the Human Mucolipin Transient Receptor Potential 1 (TRPML1); TRPML1-expressing cells, Ca2+ dye fluorescence, FDSS; host cell line not named in the record; reference of the full effect not given here; AID 624414, 2012; activation, % (concentration not given with the values); actives 0.12% (n = 410,000); Mucolipin-1 (Homo sapiens), Q9GZU1; in the data active = activation above about 50%; inconclusive = about 30% to 50%; inactive = below about 30%; also: 0% is about no effect; the text of the record puts the active cut at 80%
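Kinetic FDSS Ca2+ read in Tet-induced TRPML1-DL cells (ABD Ca8 dye plus quencher, 45-90 min RT loading): baseline, then compound, then 110 s agonist window; EC80 agonist 54-4 at 4uM final added afterwards for a 110 s antagonist window.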
PINK1 modulator: A Quantitative High throughput Screen to Identify Chemical Modulators of PINK1 Expression; PINK1 immunofluorescence, high-content cytometry, 24 h; Potency, µM (titrated, usually from 76.6 µM), for inactives: at the top dose activation (PINK1 increase), actives largely listed as activators; actives 0.2% (n = 410,000); AID 624263, 2012; active = well fitted activation curve with a large enough effect; inconclusive = small, poorly fitted or top-dose-only effect; inactive = flat fitted curve, though single readings scatter; cell line not stated here;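 also: potency is read from the fitted curve at half-maximal effect; % of control where 0% means no effect; nearly all actives have a fitted effect of over 65% in size; a mitochondrial uncoupler was the plate control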
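Stable cell line, 250 cells/well, 12 h attachment; compounds pinned at 5 concentrations, 24 h; CCCP control. Fixed with nuclear dye, primary antibodies 12 h at 10 degrees C, secondary plus cell stain; laser-scanning cytometer read.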
D2 PAM: Beta-Arrestin HTS for Positive Allosteric Modulators of the Human D2 Dopamine Receptor: Potentiators; actives 0.23% (n = 360,000); DiscoveRx D2 beta-arrestin cells, luminescence, 90 min; 100% = 57 uM dopamine signal; D(2) dopamine receptor (Homo sapiens), P14416; AID 624464, 2012; potentiation, % (test concentration not listed); active = potentiation of 50% or more; inconclusive = 30% to 50%; inactive = 30% or less;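 also: compound concentration not given in the record; tested on top of an EC20 dose of dopamine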
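D2 cells co-treated with compound plus 50 nM dopamine (EC20) for 90 min at 37 deg C to detect potentiation. Beta-arrestin recruitment was read as enzyme-fragment luminescence after 1 h at ambient temperature. Full response was set by 57 uM dopamine.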
* = called active by the depositor; ? = inconclusive; . = not tested or not shown; [ ] = another dose, or the depositor's remark.

compound,D2 agonist,Six1-Eya2 blk,CtBP-E1A inh,TRPML1 agonist,PINK1 modulator,D2 PAM
O=S(=O)(NCc1ccccc1)c1ccc(S(=O)(=O)NCC2CCCO2)cc1 (configuration not stated),-3.1,-1,-15,0.0,-0.8%,-3
COC(=O)N1C(=O)[C@](c2ccccc2)(C(C)C)N1C(=O)OC,-1.9,-5,0,-1.0,-0.4%,-4
CCN(C(=O)Cn1c(=O)n(Cc2ccccc2)c(=O)c2ccccc21)c1cccc(C)c1,-3.4,-3,-7,3.9,-0.9%,-10
COC(=O)C1OC2(OC1C(=O)OC)c1ccccc1-c1ccccc12 (configuration not stated),-3.8,1,6,0.9,0.4%,-10
Cc1cccc(NC(=O)c2ccc(S(=O)(=O)N3CCCCCC3)cc2)n1,-3.8,-2,1,0.3,3.9%,-5
Oc1ccc(-n2cccc2/C=N/n2cnnc2)cc1,4.3,-5,-17,-0.2,-1.2%,1
O=C1c2[nH]nc(-c3ccccc3O)c2C(c2ccccc2)N1Cc1ccco1 (configuration not stated),3.4,-10,-19,3.2,0.8%,-16
COc1ccc(-c2csc(NC(=O)c3ccccc3S(C)(=O)=O)n2)cc1,-5.1,-2,-7,-0.1,2.2%,11
O=C(/C=C/c1ccccc1O)c1ccccc1,-3.9,10,13,-0.1,-0.3%,-6
Cc1ccsc1C(=O)OCC(=O)N1CCN(C(=O)c2ccco2)CC1,-2.9,3,1,0.5,29%,-2
CCc1ccc(N2C(=O)C3ON(c4ccccc4)C(c4ccco4)C3C2=O)cc1 (configuration not stated),3.7,-1,1,0.4,-0.9%,4
CC1CC(C)CN(S(=O)(=O)c2cc3c4c(c2)CCN4C(=O)CC3)C1 (configuration not stated),-1.8,1,-3,-0.6,3.7%,-16
O=C(c1cccc2ccccc12)N1CCCCC1,-1.6,1,4,-0.3,0.8%,-8
Cc1cc(C)cc(OCC(=O)NC2=NCCS2)c1,-4.3,12,3,-0.6,-2.4%,11
COCCn1c(=O)[nH]c2cc(C(=O)NCCN3CCN(c4cccc(Cl)c4)CC3)ccc2c1=O,15,-11,-19,-0.6,2.3%,-23
CCCNC(=S)N(Cc1cc2cc(C)ccc2n2nnnc12)CC(C)(C)CN(C)C,2.0,7,1,-1.0,-0.5%,-6
CC(=O)c1ccc(Nc2nc(C(N)Cc3ccc(Cl)cc3)cs2)cc1 (configuration not stated),5.3,-12,?,1.1,3.8%,-37
CCN(CC)C(=O)Cn1c(=O)c2ccccc2n2c(=S)sc(-c3cccc(C)c3)c12,-2.3,17,-8,0.3,?,0
CCOC(=O)/C(C#N)=C\c1ccc(OCC(=O)Nc2ccc(C)cc2C)c(OC)c1,2.0,4,2,1.0,3.1%,9
CC(=O)CSc1nsc(SCC(C)=O)c1C#N,-5.7,-8,-19,0.5,0.1%,-12
CSc1ccc(C2=CC(=O)C[C@H](c3ccc4c(c3)OCO4)C2)cc1,0.8,1,.,2.2,3.2%,-9
CC1(c2cccc(Br)c2)NC(=O)N(CC(=O)Nc2cccnc2Cl)C1=O (configuration not stated),-4.1,2,3,0.2,0.6%,-7
O=C(O)C1C2C=CC(C2)C1C(=O)Nc1cccc(C(F)(F)F)c1 (configuration not stated),0.5,8,-3,1.0,0.1%,-10
COc1ccccc1C(=O)COC(=O)c1cc(S(=O)(=O)N2CCCCC2)ccc1N1CCOCC1,2.3,-1,-18,1.9,6.2%,-6
Cc1ccc(C(=O)N(CC(C)C)c2nc3ccccc3s2)o1,-2.8,28,32,0.6,28%,-2

New compounds follow.
compound,D2 agonist,Six1-Eya2 blk,CtBP-E1A inh,TRPML1 agonist,PINK1 modulator,D2 PAM
Nn1c(SCC(=O)Nc2cccc(F)c2)nnc1C1CCCCC1,-0.9,0,17,0.7,3.2%,-8
CCC1(c2ccc(F)cc2)NC(=O)N(CC(=O)N2CC(=O)Nc3ccccc32)C1=O (configuration not stated),-4.3,-7,-3,0.7,2.0%,21
CCOC(=O)c1ccc(NC(=O)c2cccc(S(=O)(=O)N3CCN(C(C)=O)CC3)c2)cc1,5.0,-9,-2,1.0,-0.4%,2
Cc1c(C(=O)NCc2ccc(Cl)c(Cl)c2)sc(=O)n1Cc1ccc(S(C)(=O)=O)cc1,7.0,-3,-5,0.8,1.3%,-8
O=C(Nc1cccc(Cl)c1N1CCCCC1)c1ccc2c(c1)OCCO2,0.4,-2,7,-0.5,14%,-20
N#CC(C(=O)C1CCCCC1)c1nc2ccccc2[nH]1 (configuration not stated),-1.6,-1,8,-0.2,.,12
CCn1c(SCC(=O)Nc2cc(NC(C)=O)ccc2OC)nnc1-c1ccccn1,1.1,-7,-2,-0.4,-0.7%[38.3 µM],-15
Clc1c(CSc2nc3ccccc3o2)nc2ccccn12,7.8,0,.,1.2,-0.7%,-8
Cc1ccc(C(=O)N(C)c2nnc(-c3ccncc3)s2)cc1,-1.0,-3,-3,-0.2,-1.2%,3
C[C@H](CO)N1C[C@H](C)[C@@H](CN(C)C)Oc2c(NS(=O)(=O)c3cn(C)cn3)cccc2C1=O,-0.1,0,4,-0.1,-0.7%,.
CCOc1ccccc1Nc1nnc(SC(C)C(=O)Nc2nc(-c3ccccc3)cs2)s1 (configuration not stated),-3.2,-2,-10,1.0,1.7%,-20
O=C(O)C1CCCC[C@H]1C(=O)Nc1ncc([N+](=O)[O-])s1 (some centres not stated),-5.0,-12,-18,0.0,-0.3%,-16
CCNC(=O)c1nc[nH]c1C(=O)NCC,0.7,9,-4,-0.5,-0.6%,6
CCCN(CC(=O)Nc1ccccc1C)C(=O)C1CCN(S(=O)(=O)c2ccc3c(c2)OCCO3)CC1,1.9,0,-16,2.0,1.0%,-2
CC(OC(=O)C1CCCC1)C(=O)Nc1ncc(Cl)cc1Cl (configuration not stated),2.2,5,2,1.6,2.0%,-1
Cn1cc2c(=O)n(/N=C/c3ccccc3)cnc2n1,-2.1,3,.,0.3,-0.1%,-6
CN(C)C=Nc1ccc([N+](=O)[O-])c2ccccc12,-6.3,-14,-16,-0.6,1.1%,-23
CCOC(=O)Cc1ccc(Nc2nc3cc(-c4ccccc4C)sc3c(=O)n2C)cc1,-3.2,0,-3,-0.8,3.6%,-8
Cc1cc(C)c2nc(NC(=O)c3ccc([N+](=O)[O-])o3)sc2c1,4.2,-18,0,-0.7,-0.7%,3
NC(=O)c1cc2ccccc2o/c1=N\NC(=O)c1ccccc1O,-4.9,1,-12,.,15%,-12
CCc1cc2c(=O)c(-c3nc4ccccc4n3C)coc2c(CN2CCCC(C)C2)c1O (configuration not stated),2.7,6,0,-0.8,2.0%,-3
O=C(C1CCN(Cc2ccc(F)cc2)CC1)N(CCc1ccccc1)Cc1ccccc1,-3.6,1,6,0.2,19%,-34
O=C(CSCc1ccc(F)cc1)NCc1ccc2c(c1)OCO2,-0.4,8,17,-0.4,-1.4%,-1
O=c1c2cc(-c3ccccc3)sc2nc2n1N=C(c1ccccc1)CS2,-0.4,4,-12,0.6,4.0%,1
COc1cc(Br)cc2cc(C(=O)N3CCN(c4ccccn4)CC3)c(=O)oc12,2.4,-2,-7,-0.7,0.3%[38.3 µM],2

Another view of two compounds above:
Each structure is followed by: D2 agonist, Six1-Eya2 blk, CtBP-E1A inh, TRPML1 agonist, PINK1 modulator, D2 PAM
> CCc1cc2c(=O)c(-c3nc4ccccc4n3C)coc2c(CN2CCCC(C)C2)c1O (configuration not stated)
    2.7, 6, 0, -0.8, 2.0%, -3
> O=C(C1CCN(Cc2ccc(F)cc2)CC1)N(CCc1ccccc1)Cc1ccccc1
    -3.6, 1, 6, 0.2, 19%, -34

Taken from the results shown for reference:
compound,D2 agonist,Six1-Eya2 blk,CtBP-E1A inh,TRPML1 agonist,PINK1 modulator,D2 PAM
O=C(CSCc1ccc(F)cc1)NCc1ccc2c(c1)OCO2,-0.4,8,17,-0.4,-1.4%,-1
O=c1c2cc(-c3ccccc3)sc2nc2n1N=C(c1ccccc1)CS2,-0.4,4,-12,0.6,4.0%,1
COc1cc(Br)cc2cc(C(=O)N3CCN(c4ccccn4)CC3)c(=O)oc12,2.4,-2,-7,-0.7,0.3%[38.3 µM],2

The list continues:
compound,D2 agonist,Six1-Eya2 blk,CtBP-E1A inh,TRPML1 agonist,PINK1 modulator,D2 PAM
COc1ccccc1-n1c(SC)nc(O)cc1=O,-4.0,4,0,-1.3,1.2%,4
Cc1nc(-c2ccccc2)sc1C1(C)CC(c2ccccc2F)=NO1 (configuration not stated),-0.9,7,16,2.0,2.1%,-6
Cc1ccc(CNC(=O)CS(=O)CC(=O)O)cc1 (configuration not stated),-3.1,5,3,-0.4,-0.2%,20
CCCCCCCCC(=O)N/N=C(\C)c1ccco1,-4.6,-5,-5,0.3,9.0%,-21
CCN1CCN(c2nc(Nc3ccc(NC(C)=O)cc3)nc(Nc3ccc(NC(C)=O)cc3)n2)CC1,-0.8,-1,-6,1.5,6.8%,-5
COc1ccc(-c2nc(CS(=O)CC(=O)NCCN3CCCCCC3)c(C)o2)cc1OC (configuration not stated),-3.0,2,-19,-0.4,1.4%,-15
CCOc1ccc(C(=O)c2ccc(OCC)c(N)c2)cc1N,-0.3,-6,-14,1.2,1.2%,-5
CC(C)N(C(=O)[C@H]1C[C@H](CC(=O)NCCCN(C)C)C(=O)N2CCc3c([nH]c4ccc(Cl)cc34)[C@]12C)C(C)C,0.0,-3,-3,-0.6,-1.0%,.
O=C(N/N=C/c1cc(Cl)cc([N+](=O)[O-])c1O)c1ccc2c(c1)OCO2,-15,-20,?,0.5,1.3%,-10
CN(C)C(=O)C1=NOC2(C1)C(=O)Nc1ccccc12 (configuration not stated),.,1,7,-0.6,1.4%,.
O=c1ccc(/C=C/c2ccccc2)nn1Cc1ccc(F)cc1,1.8,12,8,3.3,2.9%,-2
Cc1cc(C(=O)N2CCc3ccccc32)c2cc(F)ccc2n1,-0.5,3,-14,-1.0,-0.1%,-14
O=C(OCC1CC(c2ccccc2Cl)=NO1)c1ccc(Br)cc1 (configuration not stated),-5.1,14,8,-0.4,-0.4%,-2
Oc1ccccc1-c1nc(NCc2ccccc2)c2ccccc2n1,2.5,2,1,1.4,2.3%,0
O=C(c1ccco1)N1CCN(C2c3ccccc3-c3ccccc32)CC1,-3.8,1,0,2.0,-0.1%,-2
CCCCc1nc(NCc2ccccc2)c(C#N)c2c1COC(C)(C)C2,-3.6,8,9,0.8,13%,0

Bioassay records: PubChem BioAssay, National Center for Advancing Translational Sciences (NCATS)
